# High-throughput results: PubChem, Fisher Drug Discovery Resource Center
# NPYLR7 agonist: mosquito NPYLR7 agonism; HEK293T NPYLR7/Galpha15, GCaMP6s calcium fluorescence; activation, % at 10 µM; 270,000 tested, 0.15% active; in the data active = activation above about 40%;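 note: 0% = vehicle and 100% = reference agonist at the receptor; some compounds past the cut are filed as inactive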
# NPYLR7 agonist max-min: further read-out of NPYLR7 agonist, marked with its call; activation, %; measured here: Max-Min RFU normalised activation; some inactives read as strong as hits;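 span of the calcium signal over five minutes; 0% = vehicle and 100% = native peptide agonist; compound fluorescence can raise it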
# Starred values were filed as active, the others as inactive; & = joins results of further samples.
# Order of values: NPYLR7 agonist, NPYLR7 agonist max-min
> CC(=O)N(OCc1ccccc1)[C@@H]1c2cc(C#N)ccc2OC(C)(C)[C@H]1O
→ -14, -19
> CCOC(=O)C1(CCc2ccccc2)CCCN(Cc2ccc(OC)c(O)c2)C1 (configuration not stated)
→ 1, 0
> Cc1ccc(CC(=O)NCC(C)(C)N2CCOCC2)cc1
→ 1, 1
> CNC(=O)C1c2c(OC)ccc3c2C(=CC(C)(C)CO3)CN1C1CCOCC1 (configuration not stated)
→ 4, 17
> COc1ccc2[nH]c(=O)c(CN3CCC(N4CCCC(O)C4)CC3)cc2c1 (configuration not stated)
→ 2, 1
> CSCCC(C(=O)O)N1C(=O)CSC1=S (configuration not stated)
→ -2, -1
> CCc1nccn1-c1cc(C)nc2c(-c3ccc(OC)c(OC)c3)c(C)nn12
→ 3, 12
> OCc1c[nH]c(=S)n1Cc1ccc(Cl)cc1
→ 0, -3
> CCCCC(Sc1ccc2nnc(-c3ccccn3)n2n1)C(=O)O (configuration not stated)
→ 2, 1
> CCCNC(=O)Nc1ccc(-c2c(-c3ccc(OC)c(OC)c3)nn(-c3ccccc3C)c2OC(C)=O)cc1
→ -1, 7
> COCCCNC(=O)c1cc2n(n1)CCN(Cc1ccccc1OC)C2=O
→ 16, 13
> COc1cccc(NC(=O)CSc2nnc(N3CCCC3)n2C2CC2)c1
→ 12, 1
> Cc1noc(C)c1C=CC(=O)NNc1c(F)c(F)c(F)c(F)c1F
→ 0, 5
> Cc1cccc(S(=O)(=O)NC(=O)C2(C)CCN2C(=O)c2ccccc2)c1 (configuration not stated)
→ -1, -3
> Cc1c(C)n2c3c(=O)n(CCc4ccccc4)c(=O)n(C)c3nc2n1CC(C)C
→ 0, 0
> Cc1ccc(-c2nc(CN3CCCCC3c3cccc(F)c3)c(C)o2)o1 (configuration not stated)
→ 0, -1
> O=C(COCC(F)(F)F)NCc1ccc(Cl)s1
→ 5, 3
> CCCCOc1ccc(-c2nc(C=Nc3ccc4c(c3)OCCO4)c(O)o2)cc1
→ -5, -12
> O=C(CCc1cc2c(n1-c1ccc3c(c1)OCO3)-c1ccccc1CC2)NCCN1CCOCC1
→ -2, -2
> COc1c(C)cc(C(=O)C2CCCN(C(=O)c3[nH]ncc3Cl)C2)cc1C (configuration not stated)
→ -9, -14
> COc1ccc(-c2cc(C(=O)NC3=NCCS3)c3ccccc3n2)cc1
→ 5, 0
> Cc1ccc(C)n1-c1sccc1C(=O)Nc1ccc(S(C)(=O)=O)cc1
→ 7, 5
> O=C(O)c1csc(CSc2nnc(-c3ccccc3Cl)n2-c2ccccc2F)n1
→ -2, -9
> O=C(/C=C/c1nccs1)NCC(=O)Nc1ccc(Br)cc1
→ 15, 14
> CCOC(=O)CSc1nc2c([nH]c3ccccc32)c(=O)n1-c1ccc([N+](=O)[O-])cc1
→ 0, 18
> O=C(Cc1ccc(F)cc1)Nc1ccc(Nc2cc(-n3ccnc3)ncn2)cc1
→ -18, -19
> Cc1ccccc1N1CCN(CCS(=O)(=O)c2ccc(Br)cc2)CC1
→ -3, -5
> CS(=O)(=O)c1ccc(Nc2cc3[nH]c(-c4cccc(C(F)(F)F)c4)cc3cn2)cc1
→ 4, 22
> CCCOc1ccccc1C(=O)N1CCc2c(nc(-c3ccccn3)[nH]c2=O)C1
→ 3, 3
> O=C(Cn1nc(-c2ccco2)c2sc(N3CCCCC3)nc2c1=O)NCCc1ccccc1
→ -5, -9

# Order of values: NPYLR7 agonist, NPYLR7 agonist max-min
> COc1ccc(OC)c2sc(N(CCCN3CCOCC3)C(=O)c3cc(C)on3)nc12
→ 4, 1
> Cn1ccnc1CN(Cc1ccc(-c2ccccn2)cc1)C1CC1
→ -3, -4
> Cc1nn(CN2CCC(c3nnc4n3CCC4)CC2)c(=S)n1Cc1ccccc1
→ 3, 1
> COC(=O)c1ccc(N2C(=O)c3ccc(OC)c(OC)c3C2=O)cc1
→ 4, -1
> COc1cccc(-c2nnc3ccc(OCCNC(=O)CC4CCCCC4)nn23)c1
→ -11, -14
> O=c1c(-c2cc(Cl)sc2Cl)nnc2c3ccccc3ncn12
→ -3, -4
> COCc1c(Br)c(C)nc(OCC(=O)N/N=C\c2cccc([N+](=O)[O-])c2)c1C#N
→ -10, -15
> C[C@@H]1CC[C@H]2[C@@H](C)C(O)O[C@@H]3O[C@]4(C)CC[C@@H]1[C@]32OO4 (some centres not stated)
→ -3, -9
> Cc1nc2c(OCc3ccc(C(F)(F)F)cc3)cccn2c1N(C)Cc1cccs1
→ 12, 5
> O=C(CSc1ccc(-c2ccc(-n3ccnc3)cc2)nn1)NCC1CCCO1 (configuration not stated)
→ -8, -9
> COc1ccccc1C(=O)NNc1cc(=O)n(C)c(=O)n1C
→ 3, 3
> CCn1nnc2c(N(C)C)ncnc21
→ 12, 4
> CCCCC(=O)c1ccc(CCCC)[nH]c1=S
→ 17, 12
> c1ccc(Oc2cccc(C3c4cccn4CCCN3Cc3ccc4c(c3)OCCO4)c2)cc1 (configuration not stated)
→ 11, 12
> COc1cccc(Cc2nsc(N(CCC(=O)N3CCN(c4ccccc4Cl)CC3)Cc3ccco3)n2)c1
→ -3, -3
> O=C1CC2(CCN(C(=O)c3ccc(N4CCCCC4)cc3)CC2)CN1
→ 2, -1
> CCN(Cc1cccc(S(=O)(=O)N(C)C)c1)CC1CCOC1 (configuration not stated)
→ 3, 2
> Cc1cc(C(=O)NCC(c2cccs2)N(C)C)c2c(C)nn(C)c2n1 (configuration not stated)
→ 9, 4
> CC(C)C(C)(C#N)NC(=O)CN1CCCC(NS(C)(=O)=O)C1 (configuration not stated)
→ -2, -3
> CCCCSc1nnc(-c2cn(C)nc2OC)n1CC
→ 8, 9
> O=C1CCC2C(=O)N(CC(=O)N3CCCC3)C(=O)C2C1 (configuration not stated)
→ 0, 0
> Clc1ccc(COc2ccc(CNc3ncn[nH]3)cc2)cc1
→ -13, -15
> COc1ccnc(Oc2ccc(Cl)c3ccccc23)n1
→ -3, -4
> COc1cccc2cc(C(=O)Nc3nnc(-c4cc(C)n(C)n4)o3)oc12
→ -7, -11
> Fc1ccc(OCCN2CCCCC2CCN2CCOCC2)cc1 (configuration not stated)
→ 1, 0
> O=c1c2c(-c3ccccc3)ccnc2[nH]n1-c1ccc(Cl)cc1
→ -2, -2
> Cc1cc(C)c2oc(-c3ccc(NC(=O)c4ccc([N+](=O)[O-])c(C)c4)cc3)nc2c1
→ -20, -16
> CCc1nc2n(n1)C(=O)C(C(c1ccc(C(F)(F)F)cc1)N1CCC3(CC1)OCCO3)S2 (configuration not stated)
→ -3, -8
> COc1ccc(CC(=O)N2CCCC2(C)C(=O)NCC(C)C)cc1 (configuration not stated)
→ 5, 3
> CC(C)c1ncc(C(=O)N2CCN(C)C3(CCN(C)CC3)C2)c(=O)[nH]1
→ 11, 7

# Order of values: NPYLR7 agonist, NPYLR7 agonist max-min
> Cn1ccnc1SCc1cc(=O)c(OC(=O)c2ccc(F)cc2)co1
→ -9, -8
> Cc1cc(C)cc(-c2nc3ccccn3c2NC(=O)/C=C/c2ccccc2)c1
→ -12, -9
> COc1cccc(OC)c1C(=O)NC(C)C(=O)Nc1nnc(-c2cccc(C)c2)s1 (configuration not stated)
→ 32, 31
> COc1ccc(-n2nc(-c3ccccc3)c3c2N(CC(=O)NCc2cccnc2)C(=O)CSC3c2cccc(F)c2)cc1 (configuration not stated)
→ 7, 16
> COc1cccc(Cc2nsc(Oc3ccc(CC(=O)NCc4ccc5c(c4)OCO5)cc3)n2)c1
→ -14, -4
> CC(=O)Nc1ccc(S(=O)(=O)NC2CCCCC2)cc1
→ 15, 5
> CCC(CC)C(=O)N(C)c1c(C)nc2ccc(C(=O)Nc3cccc(OC)c3)cn12
→ 12, 7
> CNC(=O)C1CCCCN1C(=O)CCNC(=O)C1CCCC1 (configuration not stated)
→ 2, 0
> COc1cccc(-c2nccn2-c2cccc(C(C)=O)c2)c1OC
→ -1, -1
> COC(=O)c1sccc1NC(=O)C1CC=CCC1C(=O)O (configuration not stated)
→ 2, 3
> CC(C)(C)CC(C)(C)Nc1c(-c2ccccc2)nc2ccc(Cl)cn12
→ 4, 3
> CC(NC(=O)CCN(Cc1ccccc1)c1nc(C2CC2)nc2ccccc12)c1ccccc1 (configuration not stated)
→ -3, 0
> COCCn1cc(NC(=O)N2CCCC(C)C2)c2ccccc21 (configuration not stated)
→ -3, -4
> CCOC(=O)Cc1cc([N+](=O)[O-])c(N)c([N+](=O)[O-])c1
→ 12, 13
> Cc1ccc(-c2nc(C=Nc3cccc(Cl)c3)c(O)o2)cc1
→ 0, -4
> CCOc1ccccc1-n1c(-c2ccccc2)cc(C(=O)N2CCCC2)c1C
→ 11, 9
> CC(NC(=O)N1CCOC(c2ccccc2Cl)C1)c1ccccn1 (configuration not stated)
→ 8, 5
> COc1ccc2[nH]cc(C3CCN(C(=O)c4c(-c5c(F)cccc5Cl)noc4C)CC3)c2c1
→ 14, 20
> Cc1cccc2ncnc(NCC3(c4ccccc4)CCOCC3)c12
→ -1, 4
> O=C(NCc1ccco1)c1ccc(CSc2nnc(-c3ccncc3)n2-c2cccc(C(F)(F)F)c2)cc1
→ -6, -3
> CC(C)Cc1ncc2c(n1)CN(C(=O)c1ccc(Cn3cnnn3)cc1)C2
→ -2, -3
> COc1ccc(S(=O)(=O)Nc2ccc3c(c2)CCC(=O)N3CC(C)C)c(OC)c1
→ 10, 5
> O=C(Nc1ccc2[nH]cc(CCN3CCN(c4cccc(C(F)(F)F)c4)CC3)c2c1)C1(c2ccc(Cl)cc2)CCCC1
→ 1, -4
> CCCCCSc1nnc2[nH]c(=O)cc(N)n12
→ 5, 4
> O=C(c1cc2sccc2[nH]1)N1CCC(Cn2cc(CCO)nn2)CC1
→ 11, -2
> NS(=O)(=O)c1ccc2c(c1)CCN2Cc1cc(F)cc2c1OCOC2
→ -4, -4
> O=C(CSc1nc(=O)n(CCCO)c2c1CCCC2)Nc1ccc2c(c1)OCCO2
→ -10, -19
> CCCCCN(CC(=O)N1CCc2sccc2C1c1ccccc1C)S(=O)(=O)c1ccc([N+](=O)[O-])cc1 (configuration not stated)
→ 25, 19
> CCc1[nH]n(-c2ccc(Cl)c(Cl)c2)c(=O)c1C1=C(N(CC)CC)C(=O)N(c2ccc(C)cc2)C1=O
→ -15, -10
> COCCCNC(=O)c1cc(NC(=O)c2ccc(-c3ccccc3)cc2)ccc1N1CCc2ccccc2C1
→ -4, 2

# Order of values: NPYLR7 agonist, NPYLR7 agonist max-min
> OC(Cn1cncn1)(Cn1cncn1)c1ccc(F)cc1F
→ 5&-1, -8&-6
> Cc1cccc(CN2CCCC(C(=O)Nc3cccc(-c4cc5ccccc5[nH]4)c3)C2)n1 (configuration not stated)
→ -8, -7
> O=C1c2cccc3cccc(c23)N1CC(O)c1ccccc1C(F)(F)F (configuration not stated)
→ 5, 2
> Cc1ccccc1OCC(=O)Nc1nnc(SCc2ccccc2F)s1
→ -3, -2
> O=C(Nc1ccc(N2CCN(C(=O)CCCOc3ccccc3)CC2)nc1)c1ccco1
→ 2, -8
> Cc1ccc(C=CC(=O)OCC(=O)c2cc(C)n(Cc3ccco3)c2C)o1
→ 6, 4
> O=C1NCC(=O)N2CCN(Cc3ccc(Cl)s3)CC12 (configuration not stated)
→ 13, 8
> Cn1c(=O)c2nc(N3CCOCC3)n(CC(=O)c3ccccc3)c2n(C)c1=O
→ 16, -1
> Cc1cc(C(=O)Nc2nnc(-c3ccno3)o2)n(C)n1
→ 7, 3
> Cc1nc(CN(C)C(=O)c2cccc(NCc3ccccn3)c2C)cs1
→ 12, 9
> Cc1cccc(CNCCC(=O)Nc2ccc(C(N)=O)cc2)c1C
→ 7, -4
> CCc1nc(N(CCC(=O)N2CCN(c3ccccc3F)CC2)Cc2ccccc2)c2ccccc2n1
→ 21, 29
> O=C(NCCCc1ccccc1)c1ccc(Br)s1
→ -9, -10
> CCC1SC2=NC(C)=C(C(=O)OC)C(c3cc(Br)ccc3OC)N2C1=O (configuration not stated)
→ 2, 2
> C=C(C)Cn1c(N2CCN(CC(=O)OCC)CC2)nc2c1c(=O)[nH]c(=O)n2C
→ 0, -2
> C/C(=N\NC(=O)c1cc(C(C)C)[nH]n1)c1cccc2ccccc12
→ 3, 7
> COc1cc2nc(-c3ccc(C)o3)cc(C(=O)NC3CCc4ccccc43)c2cc1OC (configuration not stated)
→ 1, -8
> Clc1ccc(C=NNc2ccc(-n3ccnc3)nn2)cc1
→ 6, 7
> CNC(=O)c1ccc(CNCC(=O)NC(C)c2ccc(C)cc2)o1 (configuration not stated)
→ -3, -3
> CSc1ccc(Cn2c(C)c(C(=O)NCc3cccc([N+](=O)[O-])c3)sc2=O)cc1
→ -7, -8
> COCCNCC(=O)N(CCc1ccc(OC)c(OC)c1)Cc1cccs1
→ -7, -15
> Cc1nc([C@H](C)O)n(-c2cc(Cl)ccc2Cl)n1
→ 2, 0
> CCOC(=O)c1cc(-c2cccc(NC(=O)c3ccc(Cl)nc3)c2)n(-c2ccccc2C)n1
→ 22, 11
> CCc1cccc2c(C(CC(=O)NCCN(C)C)c3ccccc3C(F)(F)F)c[nH]c12 (configuration not stated)
→ 6, 14
> CN(C)CCC1CCN(C(=O)c2cc3ccccc3c(=O)[nH]2)CC1
→ 1, -2
> O=C(NCc1nnc(SCc2ccccc2)o1)c1c(F)cccc1F
→ -6, -1
> COc1cccc(-n2c(=O)[nH]c3c(C(N)=O)ncnc32)c1
→ 13, 5
> CCOc1ccc(CC2SC(=Nc3ccccn3)NC2=O)cc1 (configuration not stated)
→ 7, 5
> CCCCCN(Cc1nc(C(=O)OC)cs1)C(=O)c1cc(C(F)(F)F)cc(C(F)(F)F)c1
→ 23, 28
> COc1cccc(C(C2Sc3nc(C)nn3C2=O)N2CC(C)CC(C)C2)c1 (configuration not stated)
→ 16, 15

# Already shown: entries from further up.
# Order of values: NPYLR7 agonist, NPYLR7 agonist max-min
> CCCCSc1nnc(-c2cn(C)nc2OC)n1CC
→ 8, 9
> O=C1CCC2C(=O)N(CC(=O)N3CCCC3)C(=O)C2C1 (configuration not stated)
→ 0, 0
> Clc1ccc(COc2ccc(CNc3ncn[nH]3)cc2)cc1
→ -13, -15

# A portion of the library, so the mix of outcomes need not match the whole.
